Screens from PubChem BioAssay.
miR-21 FLuc: raises the signal of a miR-21 reporter; 340,000 tested, under 10 active; HeLa miR-21 FLuc reporter, luciferase, 48 h; Potency, µM (doses to about 38.3 µM), for the others: at the top dose reporter change, positive = more light; active = well fitted rising curve with a large enough effect; inconclusive = small, poorly fitted or top-dose-only effect; inactive = no such curve, though single readings can be large or run the other way;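 further: % of control where 0% means no effect; miR-21 action dims this reporter so a rising signal means less miR-21 action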
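HeLa miR-21-FLuc reporter line, endogenous miR-21; 2000 cells/well in DMEM/10% FBS; compound titration up to ~40uM final, 48 h, 37 degree Celsius; luciferase detection reagent, 15 min lysis, CCD luminescence.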
Rango-impB inh: inhibitors of Rango-importin beta complex formation; actives 0.031% (n = 340,000); Potency, µM (doses to about 92.2 µM), without a hit: at the highest dose inhibition of complex formation; Q14974; Rango CFP/YFP FRET sensor + importin beta, 45 min; active = rising FRET ratio curve, often small or poorly fitted; inconclusive = mostly compound fluorescence or quenching in the first reads; inactive = flat curves in all reads;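 further: potency means the concentration at half of the fitted maximal effect; 0% = DMSO wells and 100% = buffer wells lacking importin beta; nearly all actives have a fitted effect of over 15% in size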
Target sequence (Q14974 whole entry, looked up): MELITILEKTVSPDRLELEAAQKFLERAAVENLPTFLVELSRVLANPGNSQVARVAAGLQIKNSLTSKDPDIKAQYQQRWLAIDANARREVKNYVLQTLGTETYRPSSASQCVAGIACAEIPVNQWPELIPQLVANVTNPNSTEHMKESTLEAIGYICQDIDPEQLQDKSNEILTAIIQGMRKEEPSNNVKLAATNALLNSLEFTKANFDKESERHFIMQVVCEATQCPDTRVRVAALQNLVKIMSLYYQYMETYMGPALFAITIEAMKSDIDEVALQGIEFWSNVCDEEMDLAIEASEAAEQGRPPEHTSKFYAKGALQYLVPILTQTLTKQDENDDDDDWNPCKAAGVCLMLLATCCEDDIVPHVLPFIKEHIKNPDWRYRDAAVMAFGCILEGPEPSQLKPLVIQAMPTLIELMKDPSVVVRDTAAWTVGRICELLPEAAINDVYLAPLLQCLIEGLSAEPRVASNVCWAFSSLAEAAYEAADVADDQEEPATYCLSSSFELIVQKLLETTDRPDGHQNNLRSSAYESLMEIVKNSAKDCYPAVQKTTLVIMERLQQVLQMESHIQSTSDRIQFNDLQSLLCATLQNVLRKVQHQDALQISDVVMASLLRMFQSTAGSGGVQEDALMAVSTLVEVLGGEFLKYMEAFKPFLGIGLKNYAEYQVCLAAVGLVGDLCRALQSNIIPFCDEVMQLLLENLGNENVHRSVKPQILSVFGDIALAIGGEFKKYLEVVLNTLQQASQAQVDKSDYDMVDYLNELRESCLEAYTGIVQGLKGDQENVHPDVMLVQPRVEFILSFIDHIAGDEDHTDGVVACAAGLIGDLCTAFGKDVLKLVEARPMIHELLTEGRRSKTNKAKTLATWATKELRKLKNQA
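FRET biosensor (snurportin 1 IBB flanked by EYFP and cerulean), 50 nM, with compound 5 min, then 0.125 microM importin beta in PBS, 1 mM DTT, 0.02% Tween-20, 0.1% BSA. CFP/YFP ratio read after 45 min at room temperature; pre-read flags interference.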
GLA inh pH 4.5: blocks human alpha-galactosidase A at pH 4.5; P06280; activity change, negative = inhibition, % at 105 µM; 230,000 tested, under 10 active; purified enzyme, 4-MU-alpha-Gal fluorescence, pH 4.5; AID 1467; inconclusive = small, poorly fitted or top-dose-only inhibition, or a rising curve; inactive = flat fitted curve, though single readings scatter; no compound was filed as active;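 further: 0% = full activity with enzyme and -100% = basal without enzyme; dose as in the result columns while the protocol names 77 µM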
Rango release inh: inhibitors of RanGTP-induced Rango-importin beta complex dissociation. O95149+P62826. AID 540253. Biochemical FRET Rango-importin beta, RanGTP-induced dissociation. Potency, µM (titrated, usually from 46.1 µM), without a hit: at the highest dose activity change, negative = inhibition. actives 0.071% (n = 340,000); active means falling FRET ratio curve, often poorly fitted, with flat reads before Ran was added; inconclusive means other falling curves, or compound fluorescence or quenching; inactive means flat or rising ratio curve;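 further: potency means the concentration at half of the fitted maximal effect; % of control where 0% means no effect; nearly all actives have a fitted effect of over 45% in size; -100% = wells without RanGTP and RCC1; the record marks most hits as doubtful in a second field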
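Compounds sat 5 min at room temperature with 0.1 uM Rango biosensor plus 0.25 uM importin beta, then FRET pre-read. RanGTP-RCC1 (0.6 uM Ran, 2mM GTP, 0.2 uM RCC1) added for 45 min, and the CFP/YFP post-read measured blocked complex dissociation.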
* marks the source's active call; other numbers are inactive results; u = inconclusive; x = not tested or not shown; [ ] = dose if it differs, or a comment.

SMILES	miR-21 FLuc	Rango-impB inh	GLA inh pH 4.5	Rango release inh
CCc1cccc2c(C=C(C#N)C#N)cn(CC(=O)N3CCCC3)c12	0%	u	6	u
COC(=O)c1cc(OC)c(OC)cc1N=CC1=C(O)CC(C)(C)CC1=O	-6%	-0.7%	6	0%
COc1ccc(OC)c(NC(=O)CN2C(=O)NC(C)(c3ccc4c(c3)OCCO4)C2=O)c1 (stereo not given)	x	5.2%	x	-3%
CCC(C)[C@H](NC(=O)NCc1ccccn1)C(=O)OC (stereo not given in full)	0%	5.8%	-11	7%
NCCCC[C@@H]1NC(=O)c2cc([N+](=O)[O-])cc(F)c2NCCCC[C@@H](C(N)=O)NC(=O)[C@H](CCC(N)=O)NC1=O	-1%	-0.3%	1	3%
CCO[C@@H]1OC(C(N)=O)=C[C@H](C(C)(C)C)[C@H]1CCCO	x	3.7%	x	-17%
COc1cc([N+](=O)[O-])ccc1NC(=O)COC(=O)c1n[nH]c2ccccc12	-5%	-2.5%	-7	-23%
CC(C)(C)C(=O)CNCC(=O)C(C)(C)C	0%	0.3%	-4	-23%
O=C(N/N=C/C=C\c1ccccc1[N+](=O)[O-])c1ccncc1	-1%	0.0%	-3[21.1 µM]	-1%
COC(=O)c1cc(NS(=O)(=O)c2ccc(N3CCC(C)CC3)c([N+](=O)[O-])c2)cc(C(=O)OC)c1	-3%	-0.3%	-15	13%
Cc1cccc(OCc2nnc(SCC(=O)NC3CCCC3)n2C)c1	-2%	5.4%	x	5%
CS(=O)(=O)NCc1ccc(C(=O)NC2CCCCC2)cc1	-12%	-3.6%	4	1%

Arranged by SMILES length (ascending): part of the list above.
SMILES	miR-21 FLuc	Rango-impB inh	GLA inh pH 4.5	Rango release inh
CC(C)(C)C(=O)CNCC(=O)C(C)(C)C	0%	0.3%	-4	-23%
COC(=O)c1cc(OC)c(OC)cc1N=CC1=C(O)CC(C)(C)CC1=O	-6%	-0.7%	6	0%
COc1ccc(OC)c(NC(=O)CN2C(=O)NC(C)(c3ccc4c(c3)OCCO4)C2=O)c1 (stereo not given)	x	5.2%	x	-3%

(list continues)
SMILES	miR-21 FLuc	Rango-impB inh	GLA inh pH 4.5	Rango release inh
COCC(=O)N1CCC(n2nnc3cc(F)ccc32)CC1	-2%	2.5%	-1	-2%
COc1ccc(C2CC(c3cccs3)=NN2C(=O)COC(=O)C2CCCCC2)cc1OC (stereo not given)	5%	-1.3%	-6	-5%
CCc1ccc(N2C(=O)C3CCCN3C2=S)cc1 (stereo not given)	-11%	-1.3%	x	-6%
COCCn1c(=O)[nH]c(=O)c2cc(C(=O)c3cc(OC)ccc3O)cnc21	-17%	u	4	-26%
O=[N+]([O-])c1ccc(O)c(C=Nc2ccc3nc(-c4ccccc4)[nH]c3c2)c1	-50%	-0.9%	-10	-28%
CN(C)c1cccc(C(=O)N2CCCC(CCC(=O)NCc3ccccc3F)C2)c1 (stereo not given)	14%	-4.9%	x	5%
C=CCSc1nnc(CNS(=O)(=O)c2ccc(C)cc2)n1C	-4%	-2.1%	x	6%
COc1cccc(OCC(=O)NN=C2c3ccccc3-c3ccccc32)c1	-6%	0.6%	2	5%
COc1cc(C[C@@H]2C(=O)OC[C@H]2Cc2ccc(OC)c(OC)c2)ccc1O	x	-1.4%	x	-6%
COc1cccc(NC(=O)CN(C)C(=O)/C=C/c2ccc3ccccc3n2)c1	x	-0.3%	x	-10%
C/C(=N\NC(=O)c1cccc(C)c1O)c1ccc(NC(=O)Cc2ccccc2)cc1	-47%	0.4%	x	7%
O=C(COC(=O)c1cccc(S(=O)(=O)N2CCCCC2)c1)NCc1ccccc1	x	-0.5%	x	5%
COCCCNC(=O)[C@H](CSCc1ccccc1)N1Cc2ccccc2C1=O	2%	-4.3%	-3	6%
Cc1cc(N=Cc2c(O)ccc3cc(Br)ccc23)no1	-3%	u	-1	u
CCC(C(=O)O)n1nnc(-c2ccc(-c3ccc(OC)cc3)cc2)n1 (stereo not given)	-38%	2.8%	-1	1%
O=C(Nc1ccccc1Cl)c1ccc(COc2ccc3c(c2)CCC3)cc1	-24%	-1.2%	6	1%
COc1ccc(OC)c(C2C(C(=O)c3cccs3)=C(O)C(=O)N2c2cc(C)on2)c1 (stereo not given)	-40%	-2.3%	-16	-14%
COC(=O)Cc1[nH]n(-c2nc3ccccc3s2)c(=O)c1C(C)=Nc1ccc(OC)cc1	0%	2.3%	-2	43%
Clc1ncn(C23CC4CC(CC(C4)C2)C3)n1	-8%	-1.1%	-6	0%
O=Cc1s/c(=N\S(=O)(=O)c2ccccc2)n(CCCCl)c1Cl	u	0.2%	2	-12%
Cc1nn(CC(=O)N2CCCCC2)c(=O)c2nn(-c3ccccc3)c(C)c12	-1%	0.5%	x	7%
COc1cccc(CNC(=O)N[C@@H](CC(C)C)C(=O)O)c1	-1%	-0.4%	5	12%
CC(C)C(=O)Nc1nc2cc3c(cc2s1)OCCO3	1%	3.4%	-1	0%
O=C(CN1CCN(C/C=C/c2ccccc2)CC1)Nc1ccccc1C(=O)NC1CC1	-6%	-3.8%	-3	-5%
COCCNCc1cc(C)n(-c2cc(S(=O)(=O)N3CCOCC3)ccc2N2CCCC2)c1C	x	0.7%	x	-4%
CCn1nc(C)cc1C(=O)OCC(=O)c1ccc(Cl)cc1	-2%	4.1%	x	-16%
Cc1cc(C)n2nc(C(=O)OCC(=O)N(C)CC(=O)Nc3ccccc3Cl)nc2n1	x	0.1%	x	-9%
COc1ccc(CCC(C)NCc2cccc(Br)c2)cc1 (stereo not given)	0%	0.9%	x	-12%
CCOC(=O)Cn1nc(NC(=O)COc2ccc(F)cc2)cc1C	-3%	-2.2%	x	-17%
Cc1ccc(CNC(=O)CC2(CC3=NS(=O)(=O)c4ccccc4N3)CCCC2)cc1	20%	u	x	-2%
O=S(=O)(NCc1ccccn1)c1cc(OCC(F)(F)F)ccc1OCC(F)(F)F	-2%	5.6%	-4	13%
OC(CNCc1ccccc1F)COc1cccc2ccccc12 (stereo not given)	-4%	-2.1%	x	13%
COc1ccc(S(=O)(=O)NCCCCOc2ccc(Cl)cc2)cc1	20%	0.5%	x	-2%
CC1CCCN(S(=O)(=O)c2ccc([N+](=O)[O-])cc2)C1 (stereo not given)	0%	1.1%	x	-7%
O=C(NNC(=O)C1CCN(S(=O)(=O)c2ccccc2)CC1)c1ccccc1O	10%	3.0%	x	24%
N=c1c2c3c(sc2ncn1N)CCCC3	6%	-0.3%	-3	10%

Profiles as entered above.
`COCCNCc1cc(C)n(-c2cc(S(=O)(=O)N3CCOCC3)ccc2N2CCCC2)c1C` in the list: miR-21 FLuc = x; Rango-impB inh = 0.7%; GLA inh pH 4.5 = x; Rango release inh = -4%
`CCn1nc(C)cc1C(=O)OCC(=O)c1ccc(Cl)cc1` in the list: miR-21 FLuc = -2%; Rango-impB inh = 4.1%; GLA inh pH 4.5 = x; Rango release inh = -16%
`CC1CCCN(S(=O)(=O)c2ccc([N+](=O)[O-])cc2)C1` (stereo not given) in the list: miR-21 FLuc = 0%; Rango-impB inh = 1.1%; GLA inh pH 4.5 = x; Rango release inh = -7%

Going on with the list.
SMILES	miR-21 FLuc	Rango-impB inh	GLA inh pH 4.5	Rango release inh
CCS(=O)(=O)N1Cc2ccccc2CC1C(=O)Nc1ccc(OC)cc1 (stereo not given)	-19%	2.9%	4	11%
O=C(Nc1cccc(Cl)c1)c1ccc(Cn2cc(Cl)cn2)cc1	-26%	2.0%	2	6%
Cc1cc(=O)oc(C)c1C(=O)N1CCN(Cc2ccc3c(c2)OCO3)CC1	0%	0.5%	4	-10%
O=C(C[C@H]1C/C=C\C[C@H](NC(=O)OCC2c3ccccc3-c3ccccc32)C(=O)OC[C@H]2CCCN2C1=O)NCCO	x	-2.6%	x	-7%
O=C(c1cccc(C(F)(F)F)c1)C1CCCN(C(=O)/C=C/c2cnc[nH]2)C1 (stereo not given)	-6%	1.3%	x	-4%
Cc1ccc(-c2nnn(Cc3nc(N)nc(N4CCOCC4)n3)n2)cc1	-7%	-2.9%	-12	2%
CC(C)(C)c1ccc(SCCc2cccnc2)cc1	-67%	-2.1%	-4	-7%
Cc1cccc(C(=O)NCc2ccco2)c1	-14%	-1.1%	x	-11%
Cc1ccc2cc(CCNS(=O)(=O)c3ccc(F)cc3)c(=O)[nH]c2c1C	1%	-3.2%	4	2%
CCN(CC)c1ccc(NC(=O)COC(=O)CCC(=O)c2cccs2)cc1	x	0.1%	x	-5%
Nc1c(C(=O)N/N=C/c2cccnc2)oc2nc(-c3ccccc3)cc(-c3ccco3)c12	4%	u	-13	u
COc1ccccc1N1CC(C)(C)C(=O)N(C(=O)c2ccc(C)cc2)C1=S	-23%	2.5%	2	19%
C=CCn1c(C)nnc1SCC(=O)c1[nH]c(C)c(C(C)=O)c1C	4%	-1.0%	11	-18%
Cc1cccc(NC(=O)/C(C#N)=C\c2ccc(C(=O)O)cc2)c1	1%	-3.9%	-2	0%
COc1cc(OC)c(-c2nn3c(-c4cccnc4)nnc3s2)cc1OC	-17%	x	-1	x
CN(C(=O)COC(=O)/C=C/c1ccc2c(c1)OCO2)c1c(N)n(Cc2ccccc2)c(=O)[nH]c1=O	x	-2.0%	x	-13%
C[C@H](CO)N1C[C@H](C)[C@@H](CN(C)C(=O)Nc2ccc3c(c2)OCO3)Oc2c(NS(=O)(=O)c3ccc(F)cc3)cccc2C1=O	x	0.1%	x	4%
Cc1ccccc1OCCNC(=O)c1ccco1	-50%	1.7%	x	12%
CC(OC(=O)/C=C/c1cccc(Cl)c1)C(=O)NC1CCCCC1C (stereo not given)	x	1.5%	x	-5%
CNc1snc(C)c1C(=O)OCC(=O)Nc1ccc(C)cc1F	x	3.5%	x	12%
COc1cccc(C(=O)NCCN2C(=O)S/C(=C/c3cccs3)C2=O)c1OC	-6%	2.0%	-5	9%
Cc1c(C(=O)O)cccc1-n1c(C)cc(/C=N/Nc2ccc([N+](=O)[O-])cn2)c1C	-43%	0.8%	-1	2%
COc1ccc(N2CCN(CCCNC(=O)C3(S(=O)(=O)c4ccc(Cl)cc4)CC3)CC2)cc1	0%	-3.4%	-5	11%
COc1ccc(-c2n(Cc3ccccc3)c3ccccc3[n+]2Cc2ccccc2)cc1	u	4.5%	-7	4%
O=C(NC(Cc1ccc2c(c1)OCO2)C(=O)NC(Cc1ccccc1)C(=O)O)c1ccccc1 (stereo not given)	-2%	0.2%	2	1%
COc1cc2ccccc2cc1C(=O)N(CCN(C)C)c1nc2ccc(C)cc2s1	22%	-0.5%	x	-1%
Cc1nn(Cc2ccccc2)c(C)c1C(=O)Nc1ccc(N2CCOCC2)cc1	-4%	-2.5%	8	-6%
COC(=O)C(Cc1c[nH]c2ccccc12)NC(=O)CNC(C)=O (stereo not given)	-3%	-1.8%	4	2%
O=c1cc(CSc2nnnn2-c2ccccc2)nc2scc(-c3ccccc3)n12	-5%	-5.2%	5	13%
Cc1ccc(-c2nc3c(=O)n(-c4ccccc4)c4c(c(=O)n(C)c(=O)n4C)c3o2)cc1	-4%	-0.1%	-27	11%
Cc1cc(C)nc(SC(C(=O)O)c2ccccc2)n1 (stereo not given)	-1%	0.7%	5	4%
COc1ccc(N2CCN(C(=O)CCS(=O)(=O)c3ccc(C)cc3)CC2)cc1	3%	0.9%	x	6%
O/N=C1\CCCc2nnc3c(c21)CCCC3	-3%	-2.7%	10	-10%
Cc1cc(C)c2oc(C(=O)Nc3ccc(S(=O)(=O)Nc4nccs4)cc3)cc(=O)c2c1	-19%	-5.2%	6	-18%
Cc1ccccc1NC(=O)C[n+]1cc(-c2ccccc2)n2c1CCC2	0%	-0.1%	u	-12%
COc1ccc(C(=O)CSc2nc3c(c(=O)n(C)c(=O)n3C)n2C)cc1	0%	x	-3	x
CCN1C(=O)[C@H]2[C@@H](c3ccc(C)cc3)N3C(=O)N(c4cccc(Br)c4)C(=O)[C@@]3(CC)[C@H]2C1=O	x	-1.6%	x	8%
CC(NC(=O)COc1cccnc1[N+](=O)[O-])c1ccc(Cl)cc1Cl (stereo not given)	-6%	-0.5%	x	16%
c1cnc(NC2C3CC4CC(C3)CC2C4)nc1 (stereo not given)	-1%	1.4%	2	2%

An excerpt; rates above refer to the full screens.
